Assay outcomes: PubChem BioAssay, several laboratories
Bead autofluor: counter-screen for toxin protease inhibitors: compound fluorescence; compound autofluorescence counterscreen, microsphere flow cytometry; stronger effect = higher value; fluorescence intensity (test concentration not listed); 360,000 compounds, 3.1% hits;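 active = at least 3 SD above the mean of all compounds, about 16000 in these data; inconclusive = too few beads counted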;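 also: 100 nL of 1 mM stock went into each well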
BJeLR lethal: kills HRASV12-expressing BJeLR cells. inhibition, % (test concentration not listed). 300,000 compounds, 0.17% hits. AID 1554. BJeLR (HRASV12) viability, CellTiter-Glo ATP luminescence, 48 h; reference of the scale not given here;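 active = replicate mean above 50%; inconclusive = above 50% but judged a plate artefact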;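 also: 50 nL library stock added to about 25 µL; numbers are from one replicate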
PrP UTR inh: inhibition of PrP 5' UTR reporter expression. cell-based PrP 5' UTR mRNA reporter, plate reader. 340,000 compounds, 0.35% hits. inhibition, % (test concentration not listed);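 active = every replicate at 50% or more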;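 also: 0 = median of the neutral control wells; tested in H4 reporter cells; numbers are from one replicate; inactives centre near -14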
Mtb hypoxia rep: inhibitors of hypoxia-regulated fluorescent reporter in Mycobacterium tuberculosis. 300,000 compounds, 0.1% hits. fluorescence inhibition, % (no concentration beside the values). M. tuberculosis hypoxia-regulated fluorescent reporter, fluorescence;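 active = 35 to 45% if threefold the growth effect, above 45% if 1.5-fold the growth effect; inactive = the rest, general growth blockers included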;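 also: wells of about 50 µL received 100 nL stock; 0% = vehicle wells and 100% = reference inhibitor wells; whole bacteria with a GFP reporter of the hypoxia response; strong numbers were not always called active; many hits fall short of the cut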
Sa RN4220 lethal: kills Staphylococcus aureus RN4220; S. aureus RN4220 growth, OD600, 16 h; inhibition, % (no concentration beside the values); 330,000 compounds, 0.33% hits;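 active = z-score of -3 or lower and OD600 up to 0.18 on both plates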;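 also: plate controls were untreated cells for no effect and reference antibiotic for full effect; stock transfer was 100 nL into about 80 µL; one replicate is shown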
ugtP null kill: kills S. aureus RN4220 lacking UgtP; S. aureus RN4220 ugtP deletion, OD600 growth, 16 h; some inactives read as strong as hits; 330,000 compounds, 0.54% hits; growth inhibition, % (concentration not given with the values); AID 1259309;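 active = z-score under -3 and OD600 up to 0.15 on both plates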;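 also: plate controls were untreated wells for no effect and antibiotic for full effect; wells of about 80 µL received 100 nL stock; the first replicate is given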
Mtb hypoxia rep growth: also measured in Mtb hypoxia rep; calls as there; growth inhibition, %; measured here: M. tuberculosis growth (absorbance);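 0% = vehicle and 100% = reference antibiotic; read after six days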
An asterisk follows results filed as active; u = inconclusive; x = no result given. No enrichment for hits. Share with any hit: about 3.9%.

mol	Bead autofluor	BJeLR lethal	PrP UTR inh	Mtb hypoxia rep	Mtb hypoxia rep growth	Sa RN4220 lethal	ugtP null kill
Cc1ccc(C(C(=O)NC2CCCC2)N(C(=O)Cc2cccs2)c2cccc(C)c2C)o1 (stereo not given)	12859	0	-6	-3	9	-3.1	-16
CCOc1ccc(CCNC(=O)CS(=O)(=O)Cc2nc(-c3ccccc3F)oc2C)cc1	5008	4	-13	4	5	1.1	-2
CCN(CC)C(=O)CSc1nc2c(sc(=S)n2CC)c(=O)n1-c1ccccc1	22153*	-8	-24	-5	3	2.8	1
Cc1cc(C)cc(N(C(=O)c2csnn2)C(C(=O)NC2CCCCC2)c2ccccn2)c1 (stereo not given)	3674	-10	1	-14	-6	0.4	0
CCC(=O)c1c(CC)c2n3c1CC[C@H]3CCC2	2870	-1	-9	x	x	x	x
O=C(CNS(=O)(=O)c1ccc(Cl)cc1)OCC(=O)N1CCCc2ccccc21	2152	-2	-63	8	5	4.6	1
Cc1csc(=O)n1CCC(=O)OCC(=O)NNC(=O)c1ccc(Cl)cc1	x	x	-26	5	-5	6.5	20
COc1cc(N2CCOCC2)ccc1C=C(C#N)C#N	4848	-9	-6	2	5	1.5	3
Cc1ccc(SCCC(=O)OC(C(=O)NC(N)=O)C(C)C)cc1 (stereo not given)	3255	-4	2	1	4	4.8	4
CCC(CC)c1nnc(NC(=O)CN2C(=O)NC3(CCCC3)C2=O)s1	5316	-5	4	7	0	3.1	-5
Cc1nc(CNS(=O)(=O)c2ccc3ccccc3c2)cs1	4361	13	1	-2	3	4.3	1
COc1ccc(-c2noc(N3CCC(C(=O)Nc4ccccc4F)CC3)n2)cc1	5582	2	-17	-5	-12	2.2	-1
CCOc1ccc2nc(SCC3CC3(Cl)Cl)[nH]c2c1 (stereo not given)	x	3	-94	5	7	-2.1	8
O=C(Cn1cc(C(=O)C(F)(F)F)c2ccccc21)N1CCOCC1	2127	-4	-22	11	4	5.3	6
O=C(Nc1ccccc1F)c1ccc(Cn2cc(Cl)cn2)cc1	3020	9	-25	-8	-2	-2.2	1
CC1Cc2ccccc2N1C(=O)CN1C(=O)NC(C)(c2ccc3c(c2)OCCO3)C1=O (stereo not given)	9195	15	-24	0	12	2.4	-10
CSc1nnc(SCc2nc3sc(C(=O)O)c(C)c3c(=O)[nH]2)s1	3509	-12	-21	16	-1	5.2	9
CN(C)c1cccc(C(=O)OCC(=O)Nc2nccs2)c1	2761	-19	-15	1	3	1.7	1
Cc1ccccc1-n1c(C)nnc1SC(C)C(=O)NCC1CCCO1 (stereo not given)	8230	x	-15	2	2	3.9	8
c1ccc2c(c1)OCC(c1csc3ncnc(N4CCCCC4)c13)O2 (stereo not given)	4588	5	-13	x	x	-2.3	13
Cc1ccc(Cl)cc1N1CCN(C(=O)C(C)n2ncn3cccc3c2=O)CC1 (stereo not given)	4112	-11	4	11	5	-0.9	1
Fc1cccc(CN2CCN(c3ccc(Cl)cc3)CC2)c1	3795	-3	-2	8	10	8.3	17
O=C(O)C1C2CC(C(Br)C2Br)C1C(=O)O (stereo not given)	3420	x	-16	5	13	-1.8	-2
O=C(O)CCCC(=O)Nc1nc2n(n1)C(c1ccc(F)cc1)CC(c1ccc(Cl)cc1)N2 (stereo not given)	21330*	3	-12	1	7	-0.4	-4
CS(=O)(=O)Nc1cccc(C2=NN(C(=O)CCCC(=O)O)C(c3cccs3)C2)c1 (stereo not given)	3930	3	-9	13	5	-3.1	-4
C=CCOc1ccc(CNn2cn[nH]c2=S)cc1OCC	12198	-3	x	-2	4	1.5	4
COc1cccc2cc(C(=O)N3CCCc4ccccc43)oc12	6065	-6	-17	7	5	5.6	-4
CC(C)(C)c1ccc(C(=O)n2cnc3ccccc32)cc1	x	-4	8	-6	-15	4.1	7
CCc1nc2ccccc2c(=O)n1/N=C/c1ccc(Cl)cc1	4527	2	-12	x	x	x	x
CN(C)C(CN1C(=O)C2CC=CCC2C1=O)c1cn(C)c2ccccc12 (stereo not given)	3630	5	-5	7	13	1.9	9
CCOc1cc([N+](=O)[O-])c2nc(N)sc2c1	4956	12	1	18	8	3.8	-1
O=C(C1CCN(S(=O)(=O)N2CCOCC2)CC1)N1CCOCC1	9495	8	x	-3	3	7.1	4
O=C(CN1C2CCCC1CC(NC(=O)c1ccccc1)C2)Nc1ccccc1 (stereo not given)	5920	-1	-24	13	1	5.7	3
CC(=O)Nc1ccc(NC(=O)CC(c2ccccc2)c2ccccc2)cc1	3763	2	-19	8	6	0.0	24
CN1CCCC(OC(=O)CCCCC(=O)OC2CCCN(C)C2)C1 (stereo not given)	2463	10	3	2	0	24	17
Cc1ccc(S(=O)(=O)NC(=O)NC(C)c2ccc(F)cc2)cc1 (stereo not given)	3684	7	-21	-12	-16	-1.7	-5
COc1cc(OC)cc(C(=O)N2CCC(N3CCN(c4ccccc4)CC3)CC2)c1	3389	1	-5	x	x	-10	5
COc1cc(CNCCc2ccccc2)ccc1OCC(N)=O	2053	1	-15	x	x	x	x
COc1cc(OC)c(N(C)S(=O)(=O)c2cccc(C(=O)OCc3c(C)noc3C)c2)cc1Cl	3518	2	-1	13	2	-4.7	5
Cc1cccc(C(=O)c2c[nH]cc2-c2ccccc2)c1	2543	7	-18	-3	4	5.1	0
COc1ccc(C)cc1NC(=O)c1nc2nc(C)cc(C)n2n1	3114	x	0	8	10	3.1	4
CCCCC(=O)N1CC(=O)Nc2ccc(F)cc2C1c1ccc(F)cc1 (stereo not given)	4166	-13	-12	13	5	4.5	17
COc1ccc2c(c1)sc(=NC(=O)CS(=O)(=O)c1ccc(F)cc1)n2C	6419	0	-21	16	1	2.5	-8
COc1ccc(C)cc1NC(=O)C(=O)N1CCCC1	5722	-2	-77	4	-5	3.1	7
C/C(=N\NC(=O)Cn1cnc2ccccc21)c1cccs1	4212	-6	-11	x	x	x	x

Profiles, looked up by structure:
`Cc1cccc(C(=O)c2c[nH]cc2-c2ccccc2)c1` reads Bead autofluor: 2543; BJeLR lethal: 7; PrP UTR inh: -18; Mtb hypoxia rep: -3; Mtb hypoxia rep growth: 4; Sa RN4220 lethal: 5.1; ugtP null kill: 0
`CCCCC(=O)N1CC(=O)Nc2ccc(F)cc2C1c1ccc(F)cc1` (stereo not given) reads Bead autofluor: 4166; BJeLR lethal: -13; PrP UTR inh: -12; Mtb hypoxia rep: 13; Mtb hypoxia rep growth: 5; Sa RN4220 lethal: 4.5; ugtP null kill: 17

More records follow.
mol	Bead autofluor	BJeLR lethal	PrP UTR inh	Mtb hypoxia rep	Mtb hypoxia rep growth	Sa RN4220 lethal	ugtP null kill
COc1ccc(CCN2CC(C(=O)NCc3ccc(F)cc3)CC2=O)cc1OC (stereo not given)	5459	-2	-16	14	-4	2.6	-2
O=C(NCc1ccc(Cl)cc1)C(=O)NCC1OCCN1S(=O)(=O)c1cccs1 (stereo not given)	5556	1	-10	-1	-8	7.4	14
Cc1noc(C)c1C(=O)OCC(=O)c1c[nH]c2ccccc12	14479	-5	-35	8	6	5.7	5
O=C(CS(=O)(=O)c1c[nH]c2ccccc12)N1CCc2ccccc21	5421	5	-13	10	12	1.7	5
CNC(=O)CSc1nnnn1-c1ccc2c(c1)OCCO2	5730	-2	-35	14	1	6.2	13
COc1cccc(CNC(=O)CCN2C(=S)NC(C)(C)CC2C)c1 (stereo not given)	4946	-1	-12	2	-1	2.7	1
CCOc1cc(/C=C2\SC(=NC)N(C)C2=O)c(Br)cc1OC(C)=O	4026	-10	5	4	5	0.1	-15
O=C(CN1C(=O)COc2ccccc21)c1ccc(Cl)cc1	11140	2	-25	5	-3	5.2	4
C=C1C(C(=O)Nc2ccccc2)C1C(=O)Nc1ccccc1 (stereo not given)	3237	12	-20	5	4	3.1	10
CNC(=O)Nc1ccc(C(O)(C(=O)OC)C(F)(F)F)cc1 (stereo not given)	3895	11	-4	7	-1	3.6	-1
CC1(c2ccccc2)NCCN2C(=O)CSC21 (stereo not given)	3741	1	-7	x	x	1.1	2
Cc1cccc2cc(CN(Cc3cccnc3)C(=O)c3ccccc3F)c(Cl)nc12	6463	-8	-22	15	5	-2.1	21
Cc1cccc(NC(=O)CO/N=C/c2ccc3c(c2)OCO3)c1	1978	10	-13	x	x	x	x
CCn1c(SCC(=O)Nc2ccc(NC(=O)c3cccs3)cc2)nnc1-c1cccnc1	5643	-9	-8	x	x	-2.3	-2
COc1ccc(CCNC(=O)CCOc2cc(C)ccc2C)cc1OC	5904	-1	-6	8	10	3.3	5
CCCOc1ccc(C2NC(=O)NC2=O)cc1 (stereo not given)	4444	0	-13	x	x	6.0	5
CCN(CC)C(=O)C(Sc1nnnn1-c1ccc(O)cc1)c1ccccc1 (stereo not given)	3531	-7	-6	3	8	1.2	12
C=CCn1c(O)c(C(C)=Nc2ccc(NC(C)=O)cc2)c(=O)[nH]c1=O	3080	-3	-4	3	8	2.1	-6
O=c1cnnc(N/N=C/c2ccc3c(c2)OCO3)[nH]1	3308	12	6	x	x	x	x
COc1ccc(NC(=O)COc2ccc(/C=N/n3c(C)nnc3C)cc2OC)cc1	3041	-1	-24	x	x	x	x
CSc1ccccc1C(=O)Nc1ccc(S(=O)(=O)NC2=NCCCCC2)cc1	x	x	x	6	-2	2.3	6
Cc1nnc2ccc(-c3cccc(NS(=O)(=O)c4ccccc4Cl)c3)nn12	4312	9	-10	1	-7	6.2	14
N#CC(C#N)=C(N)c1cccnc1	4080	-3	-39	3	1	3.5	-5
O=C(O)Cn1nc(-c2ccc(F)cc2)oc1=O	3262	4	-16	5	8	8.2	5
OC(CN1CCN(c2ncc(C(F)(F)F)cc2Cl)CC1)c1ccccc1 (stereo not given)	3601	-3	-4	7	2	0.7	8
Cc1cc(SCc2ccc(Br)cc2)nc(=O)[nH]1	5427	-6	0	-10	1	-0.7	5
O=C(CSc1nnc(CNC(=O)c2c(F)cccc2Cl)o1)NCCc1ccccc1	5298	-6	-10	5	11	-0.2	-3
Cc1nc(Nc2ccccc2)sc1C	5985	-2	-19	1	-1	3.3	-8
Cn1nc(C(=O)Nc2ccc(-n3cnnn3)cc2)c2ccccc2c1=O	3906	x	-22	-1	6	3.3	1
CCOc1ccc(NS(=O)(=O)c2ccc(NC(=O)C3CCCO3)cc2)cc1 (stereo not given)	3419	-7	-10	5	7	-2.8	11
Cc1[nH]n(S(=O)(=O)Cc2ccccc2)c(=O)c1N=Nc1ccccc1Cl	4094	0	-46	24	13	13	-3
CC(C)c1ccc(N(C(=O)c2cc3ccccc3oc2=O)C2C=CS(=O)(=O)C2)cc1 (stereo not given)	2350	-17	-25	-15	-10	6.1	2
COc1cc(OC)c2ccc(=O)oc2c1C(CCN1CCCC1)c1ccc2c(c1)OCO2 (stereo not given)	4688	-13	-15	2	3	3.1	-7
CC(=O)N(C(C)=O)c1cccc(N(Cc2ccccc2)Cc2ccccc2)c1	3727	x	-11	9	6	17	2
Cc1ccc(O)c(/C=N/NC(=O)COc2ccc3c(C)cc(=O)oc3c2)c1	5646	-1	-2	x	x	x	x
Cc1c(NC(=O)C(C)SC(=S)N2CCCC2)c(=O)n(-c2ccccc2)n1C (stereo not given)	3749	x	-12	5	2	1.0	5
Cc1cccc(NC(=O)C2CCN(C(=O)c3ccc(Cl)cc3)CC2)n1	u	0	-9	5	2	1.2	1
COc1cccc(CN2CC(C(=O)N3CCCC3)CCC2=O)c1 (stereo not given)	5890	10	-14	14	2	3.2	10
Cc1ccc(NC(=S)N(CCN(C)C)C(C)c2ccco2)cc1C (stereo not given)	2471	-3	-2	-18	7	0.7	3
